From PubChem BioAssay
HPGD inh: qHTS Assay for Inhibitors of HPGD (15-Hydroxyprostaglandin Dehydrogenase) | 15-hydroxyprostaglandin dehydrogenase [NAD(+)] (Homo sapiens), P15428 | purified HPGD, NADH fluorescence kinetic, PGE2 substrate | Potency, µM, inactives show at the highest dose activity change, negative = inhibition, usual class: inhibitors | hit rate 4.3% among 150,000 | AID 894, 2007; active = well fitted inhibition curve with a large enough effect (not every such curve was filed as active); inconclusive = small, poorly fitted or top-dose-only effect, or another doubt; inactive = no such curve, though single readings can be large or run the other way;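 note: top concentration of the series not given in the record; plate controls included wells without enzyme; inactives centre near -10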
Target sequence (P15428 whole entry, looked up): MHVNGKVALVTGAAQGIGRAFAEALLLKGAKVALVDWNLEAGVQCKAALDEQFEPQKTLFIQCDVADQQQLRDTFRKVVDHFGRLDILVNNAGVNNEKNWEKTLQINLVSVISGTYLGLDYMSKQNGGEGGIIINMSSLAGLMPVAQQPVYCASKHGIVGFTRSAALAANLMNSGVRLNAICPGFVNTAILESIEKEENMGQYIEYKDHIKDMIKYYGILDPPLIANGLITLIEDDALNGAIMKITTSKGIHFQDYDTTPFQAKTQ
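NADH formation kinetics: reaction with 30 uM PGE2 and 1 mM NAD+ (final), 20 nM enzyme, Tris-HCl pH 8 with Tween 20, after 15 min compound preincubation at room temperature. Fluorescence change, last versus first of five reads.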
Active calls of the source: *; ? = inconclusive. % is set by controls: 0 for no effect and ±100 for the full control effect; potency is the fitted concentration of half-maximal effect.

SMILES	HPGD inh
CCOC(=O)c1sc2cc([N+](=O)[O-])cc(SCCO)c2c1N	-13.1%
CCN(CC)c1ccc(N2C(=O)/C(=C/c3cccnc3)SC2=S)cc1	-6.2%
Cc1ccc2nc3c(c(N)c2c1)CCN3c1ccccc1	?
CCc1ccc(C2CC(=O)N3CN(c4ccccc4)CSC3=C2C#N)cc1 (stereo not drawn)	7.94µM*
CCOC(=O)c1ccc(NC(=O)C2(c3ccccc3)CCOCC2)cc1	-5.9%
CCOC(=O)c1nn(-c2ccccc2F)c2nc(-c3ccco3)c(C#N)c(=O)n12	?
COc1ccc(Oc2ncc3nc(CCc4ccccc4)c(=O)n(C)c3n2)cc1	-5.3%
CCC(CC)NC(=O)Cc1ccccc1[N+](=O)[O-]	0.5%
O=C(NO)c1ccc(C(=O)N(C2CCCCC2)C2CCCCC2)cc1	-0.4%
O=C(COC(=O)c1ccncc1)NC(=O)C1CCCCC1	-9.5%

An excerpt of these results, with the structure last:
HPGD inh	SMILES
-9.5%	O=C(COC(=O)c1ccncc1)NC(=O)C1CCCCC1
-5.9%	CCOC(=O)c1ccc(NC(=O)C2(c3ccccc3)CCOCC2)cc1
-6.2%	CCN(CC)c1ccc(N2C(=O)/C(=C/c3cccnc3)SC2=S)cc1
-0.4%	O=C(NO)c1ccc(C(=O)N(C2CCCCC2)C2CCCCC2)cc1
-13.1%	CCOC(=O)c1sc2cc([N+](=O)[O-])cc(SCCO)c2c1N
7.94µM*	CCc1ccc(C2CC(=O)N3CN(c4ccccc4)CSC3=C2C#N)cc1 (stereo not drawn)

Next part
SMILES	HPGD inh
Cc1ccc(S(=O)(=O)NCc2cn3c(C)csc3n2)cc1	-1.0%
CCC1CCCCN1c1nc2c(C=O)c(C)nn2c2ccccc12 (stereo not drawn)	?
O=C(Nc1sc2c(c1-c1nc3ccccc3[nH]1)CCCC2)C1CCCC1	?
CCOC(=O)COC(=O)c1ccc(Oc2cc(C)nc(SC)n2)cc1	-5.8%
O=C(Nc1cccs1)Nc1ccccc1Cl	?
CN1CCN(C2=C(Cl)C(=O)N(Cc3ccccc3)C2=O)CC1	?
COc1cccc(-c2cc(N)nn2C(=O)Nc2ccc(Cl)cc2)c1	-18.7%
O=c1oc2ccc3ccccc3c2c2c1SC(C(F)(F)F)C2 (stereo not drawn)	?
CCOc1ccc(OCc2ccc(C(=O)Nc3cccnc3)o2)cc1	-28.6%
CN1CCN(c2ccccc2NC(=O)C(Cc2ccccc2)n2cccc2)CC1 (stereo not drawn)	-13.1%
CC(=O)C1=C(O)CC(c2ccccc2)CC1=NCCc1c(C)[nH]c2ccc(C)cc12 (stereo not drawn)	-23.4%
Cc1ccc(NC(C#N)c2ccccc2OCc2ccccc2)cc1 (stereo not drawn)	-13.6%
CCCN(CC(=O)Nc1cc(Cl)ccc1Cl)C(=O)/C=C/c1ccco1	-24.6%
CC(NC(=O)CSCc1ccccc1Br)c1ccccc1 (stereo not drawn)	?
O=C(OC1CCCCC1=O)c1cc(=O)c2ccccc2o1 (stereo not drawn)	-15.2%
O=C(NCCN1CCOCC1)c1ccc(CS(=O)(=O)Cc2ccccc2F)o1	-5.6%
CN(C)c1nc(C(N)=O)nc(N2CCOCC2)n1	-3.0%
CC(=O)N(C)/C=C1\Sc2ccccc2C1=O	-12.8%
COc1ccc(-n2c(Cc3cccn3C)nnc2SCC(=O)NCC2CCCO2)cc1 (stereo not drawn)	-9.2%
c1ccc(CNc2nc3ccccc3n3cnnc23)cc1	?
CS/C(=N\S(=O)(=O)c1ccccc1)c1ccccc1	-7.0%
COc1ccc(C=C(c2nc3ccccc3s2)c2nc3ccccc3s2)cc1O	-16.7%
CC1(c2ccccn2)Nc2ccccc2-c2nc3ccccc3n21 (stereo not drawn)	?
Cc1cc(C)c(C#N)c(SCCS(=O)(=O)Cc2ccccc2)n1	-17.3%
O=C(CNC(=O)C12CC3CC(CC(C3)C1)C2)NC1=NCCS1	-12.1%
CC(C)(C)N=C1C([N+](=O)[O-])=CC=C2C1=NC1(CCCCC1)N2O	-11.0%
CCCCCCN(C(=O)CCCCCN1C(=O)NC(c2ccc(-c3ccccc3)cc2)C(C(=O)OCc2ccccc2)=C1C)C(C(=O)NCCCC)c1ccc(O)c(C(=O)OC)c1 (stereo not drawn)	-22.1%
O=C(/C=C/c1ccc(F)cc1)NCc1cccs1	-13.4%
Cn1cc([N+](=O)[O-])c(C(=O)N/N=C/c2ccc([N+](=O)[O-])cc2)n1	-17.4%
Cn1nnnc1SCC(=O)N1CCN(Cc2ccccc2)CC1	-5.2%

HPGD inh, entries above that show a hit.
SMILES	HPGD inh
CCc1ccc(C2CC(=O)N3CN(c4ccccc4)CSC3=C2C#N)cc1 (stereo not drawn)	7.94µM*

(next part)
SMILES	HPGD inh
Cc1ccc2c(c1)c(Sc1ccccc1)c(CC(=O)O)n2C	-10.5%
COC(=O)c1ccc(C(NC(=O)OCc2ccccc2)/C(C)=C/[C@@H](C)C(=O)NCCc2c[nH]c3ccc(OC)cc23)cc1 (stereo partly drawn)	-13.1%
CCc1ccc(NS(=O)(=O)c2ccc(OC)c(C)c2)cc1	-9.7%
CN1CCN(C(=O)c2ccccc2NC(=O)C(C)(C)C)CC1	-6.9%
Cc1cc2ncn(CC(O)COC3CCCCC3)c2cc1C (stereo not drawn)	4.6%
CC(C)(C)c1cc(CN2CCN(CCO)CC2)cc(C(C)(C)C)c1O	?
CCOC(=O)CCn1c(CC(=O)OCC)nc2ccccc21	-9.6%
Cc1nn(-c2ccccc2)c(C)c1C(=O)OCC(=O)N1c2ccccc2NC(=O)C1(C)C	-2.3%
COc1ccccc1CN1C(=O)CN(C2CCCC2)C(=O)C1c1ccc(F)cc1 (stereo not drawn)	1.5%
CC(C)(C)NC(=O)C1CCC(C)(C(=O)O)C1(C)C (stereo not drawn)	-9.8%
CC1=C(C(=O)Nc2ccccc2)C(c2ccco2)C(C#N)=C(SCC(=O)OC(C)C)N1 (stereo not drawn)	-14.4%
CC(=O)OC(C)(CCC(C)(OC(C)=O)C(C)=O)C(C)=O (stereo not drawn)	-3.0%
CN1CCC2(CC1)CCN(C(=O)c1cccc(F)c1)CC2	-10.5%
CNC(=O)CN(c1cc(C)ccc1C)S(C)(=O)=O	-7.8%
O=C(NCc1ccccc1)C12CN(Cc3ccccc3)CC1C(c1cccc([N+](=O)[O-])c1)=NO2 (stereo not drawn)	-16.5%
CCOC(=O)c1c(NC(=O)c2noc3c2CCCC3)sc(C)c1C	?
COc1ccc2nc(SCc3cccnc3)c(C#N)cc2c1	-15.2%
Cc1ccc(N(CC(=O)NCC2CCCO2)C(=O)CCC(=O)Nc2ccccn2)cc1C (stereo not drawn)	-1.6%
C=CCNc1nc(Nc2ccc([N+](=O)[O-])cc2)nc(OCC)n1	-6.2%
CCOC(CNc1c([N+](=O)[O-])c(=O)n(C)c(=O)n1C)OCC	-0.3%
CCN(CC)Cc1nc2c(c(=O)[nH]1)C1(CCCC1)Cc1ccccc1-2	-15.5%
CCNC(=S)Nc1ccc(OCC)cc1	-0.4%
COc1cccc(-n2nnc3c(=O)n(Cc4ccc(C)cc4)cnc32)c1	?
CCCc1nc2c(nnn2Cc2ccccc2F)c(=O)[nH]1	28.2µM*
CCOc1ccc(N2C(=O)C(c3ccccc3)=C(c3nc4ccccc4s3)C2NC(C)=O)cc1 (stereo not drawn)	-13.7%
CCCC1COC(Cn2cncn2)(c2ccc(C)cc2)O1 (stereo not drawn)	-5.4%
Cn1c(Cn2c(=O)sc3ccccc32)nnc1SCc1ccccc1F	-1.4%
O=C1OC2CCC1(c1ccccc1)C2 (stereo not drawn)	-6.7%
c1ccc(-c2nc(N3CCCCCC3)nc(-n3ccnc3)n2)cc1	-14.6%
CC(C)(C)NC(=O)CSc1nnc(C2CC2)n1Cc1ccccc1	-6.1%
CCn1cc(C(=O)NCc2ccc3c(c2)OCO3)c(=O)c2cc(F)c(N3CCN(C)CC3)cc21	?
O=C(CSCc1ccc(Cl)cc1)N1CCN(Cc2ccc3c(c2)OCO3)CC1	-13.7%
CCOC(=O)CCNC(C(=O)OCC)c1ccccc1 (stereo not drawn)	-1.0%
CCn1nnc(-c2ccccc2NC(=O)c2cccc(-n3cnnn3)c2)n1	?
CC(C)n1c(SC2C(=O)CC(C)(C)CC2=O)nc2c1c(=O)n(C)c(=O)n2C	-4.1%
Cc1ccn(CC(=O)N2N=C(C(F)F)CC2(O)C(F)F)n1 (stereo not drawn)	4.5%
CC(C)CCn1nnnc1C(c1ccccc1)N1CCN(C)CC1 (stereo not drawn)	-2.3%
COc1ccc(NC(=O)Cc2ccc(C)cc2)c([N+](=O)[O-])c1	-2.6%
N#CC(C#N)=C1C=CC=CN1/C(=C\c1ccco1)C(=O)c1ccc(Cl)cc1	20µM*
CC1CCN(CCCNC(=O)c2ccc3c(=O)n(CCc4ccccc4)c(=O)[nH]c3c2)CC1	-15.4%

Among those listed so far, six have a furan ring, fused or not:
SMILES	HPGD inh
CCOC(=O)c1nn(-c2ccccc2F)c2nc(-c3ccco3)c(C#N)c(=O)n12	?
CCOc1ccc(OCc2ccc(C(=O)Nc3cccnc3)o2)cc1	-28.6%
CCCN(CC(=O)Nc1cc(Cl)ccc1Cl)C(=O)/C=C/c1ccco1	-24.6%
O=C(NCCN1CCOCC1)c1ccc(CS(=O)(=O)Cc2ccccc2F)o1	-5.6%
CC1=C(C(=O)Nc2ccccc2)C(c2ccco2)C(C#N)=C(SCC(=O)OC(C)C)N1 (stereo not drawn)	-14.4%
N#CC(C#N)=C1C=CC=CN1/C(=C\c1ccco1)C(=O)c1ccc(Cl)cc1	20µM*

(list continues)
SMILES	HPGD inh
O=c1c2ccccc2nnn1CSc1nnc(-c2cccs2)n1Cc1ccccc1	-0.2%
COC(=O)C1=C(C)N=c2s/c(=C/c3ccoc3)c(=O)n2C1c1ccccc1 (stereo not drawn)	-16.2%
Cc1c(C)c2c(c(C)c1O)CCC(C)(COc1ccc(CC3SC(=O)NC3=O)cc1)O2 (stereo not drawn)	-7.6%
CN1CCN(S(=O)(=O)c2ccc(=O)[nH]c2)CC1	-1.1%
CCOC(=O)/C(CCC[N+](C)(CC)CC)=N\O	-2.5%
O=C(COc1cc(Cl)c(Cl)cc1Cl)Nn1cnnc1	-6.7%
Cc1cc(SCC(=O)c2cc3ccccc3o2)nc2ccccc12	35.5µM*
O=C(Nn1cnc2ccccc2c1=O)C1CCCCC1	-8.2%
COC(=O)c1ccc(N/C=C/C(=O)c2ccc(OC)c(OC)c2)cc1	-24.5%
CCOc1ccc(CCNC(=O)CCn2cccc2)cc1OCC	3.4%
Cc1cc(C(=O)N/N=C/c2cc(Br)cc(Br)c2OC(=O)c2ccccc2)n[nH]1	-11.6%
CC1CCc2nn(CC(=O)Nc3c(F)cc(F)cc3Br)cc2C1 (stereo not drawn)	-7.1%
O=C(Nc1ccc(F)cc1)Nc1cc(OCC(F)(F)F)cc(OCC(F)(F)F)c1	-3.6%
Cc1noc(C)c1COC(=O)CCN1c2ccccc2Sc2ccccc21	-10.9%
COC(=O)Cc1cn(-c2ncc(C(F)(F)F)cc2Cl)c2ccccc12	?
Cc1ccc(C)c(C(=O)COC(=O)c2ccc(Br)o2)c1	1.1%
O=C(ONC1=NCCCCC1)c1c(F)cccc1F	1.4%
Cc1ccc2nc(-c3ccc(NS(=O)(=O)c4ccc(F)c(F)c4)cc3)sc2c1	?
CCN(CC)S(=O)(=O)c1cccc(C(=O)N/N=C/c2ccc(OC)c(O)c2)c1	-11.4%
CC1CCC(C(C)C)C(OC(=O)COC(=O)c2ccc(N)cc2)C1 (stereo not drawn)	-13.7%
CCCCOc1ccccc1C1C(C(=O)OC)=C(C)N(C)C(C)=C1C(=O)OC	-5.2%
O=[N+]([O-])c1ccc(O)c(-c2nc(-c3ccccc3)c(-c3cccs3)[nH]2)c1	-18.2%
CCC(=O)Nc1cc(OC)c(NC(=O)c2ccccc2)cc1OC	-7.2%
COc1ccc(N2Cc3ccccc3C2)cc1Cl	-15.9%
C=CCNC(=O)c1onc(CSc2ccc(F)c(F)c2)c1C(=O)O	-25.4%
CCOC(=O)c1ccc(NS(=O)(=O)c2c(C)n(C)c(=O)n(C)c2=O)cc1	-2.0%
COc1cc2c(cc1NC(=O)CC1SC(N3CCCC3)=NC1=O)oc1ccccc12 (stereo not drawn)	-12.5%
Cc1ccc(N2C(=O)CC3(CC4C=CC3C4)C2=O)cc1 (stereo not drawn)	-3.5%
O=C(NC(=S)NCc1cccnc1)c1ccccc1	-1.2%
Cc1c(-c2n[nH]c(=S)n2-c2ccc(C(F)(F)F)cc2)nnn1-c1ccccc1	-19.7%
CCCCN1CCc2c([nH]c3c(C)cccc23)C1=O	-23.8%
CC(C)NC(=O)c1ccc(-c2ccc(Cl)c(C(F)(F)F)c2)o1	-14.2%
CCOc1ccc(N2C(N)=NC(N)=NC2(C)C)cc1	-3.6%
Cn1cccc1Cc1nnc(SCC(=O)NCc2ccco2)n1-c1ccc(F)cc1	-5.4%
COCCNC(=O)CCSCc1ccccc1F	25.1µM*
Clc1ccccc1-c1cc(COc2ccc3ccccc3c2)no1	-25.6%
CC1CCN(c2nc(-c3ccccc3)cc(C(F)(F)F)n2)CC1	?
COc1ccc2c(C)cc(SCC(=O)N3CCOCC3)nc2c1	-21.8%
CCOC(=O)c1ccc(N=C2NC(=O)CS2)cc1	12.6µM*
COc1ccc(S(=O)(=O)N2CCN(c3c(C)cccc3C)CC2)cc1OC	-16.1%
CC1=C(C(=O)N2CCN(C(=O)c3ccco3)CC2)C2(CCC(C)CC2)OC1=O (stereo not drawn)	-7.3%
CCOC(=O)c1nsnc1NCCSC(=N)N	?
CCC(C)NC(=O)CS(=O)(=O)Cc1nc(-c2cccc(OC)c2)oc1C (stereo not drawn)	-5.9%
Clc1ccc(Nc2ncnc3c2cnn3-c2ccccc2)cc1	-17.4%
COC(=O)c1ccc(-c2nc3ccccc3[nH]2)cc1	?
O=C(COC(=O)c1cccnc1)Nc1cccc(Cl)c1	-11.9%

These rows are one share of the data (hit frequency here may not be typical).
